Screening data deposited in PubChem by several laboratories.
Beta apoptosis: inhibitors of cytokine-induced beta cell apoptosis, primary screen, luminescence | INS-1E cytokine-induced death, ATP luminescence, 48 h; percent of positive-control rescue, neutral wells zero | protection from apoptosis, % (concentration not given with the values) | 0.8% of 300,000 active;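 active = all replicates at 75% or more, or half of them and the mean; inconclusive = half reach 75% but not the mean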;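 also: 0% = cytokine-treated negative control wells and 100% = positive control rescue; higher means more ATP so stronger rescue from cytokine killing; wells of about 40 µL received 100 nL stock; the first replicate is given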
Beta2AR agonist: beta2AR agonists driving receptor internalization, primary screen, cell-based, FAP fluorogen, flow cytometry; Beta-2 adrenergic receptor (Homo sapiens), P07550; Am2.2-beta2AR cells; reference of the scale not given here; 0.43% of 340,000 active; AID 504454, 2011; response, % (test concentration not listed);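 active = response above a set limit, near 3 SD of response in nonfluorescent compounds, cut at about 42% in these data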;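 also: stock transfer was 100 nL into about 11 µL; a reference agonist was the positive control; negative values mostly stem from fluorescent compounds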
Target sequence (P07550 whole entry, looked up): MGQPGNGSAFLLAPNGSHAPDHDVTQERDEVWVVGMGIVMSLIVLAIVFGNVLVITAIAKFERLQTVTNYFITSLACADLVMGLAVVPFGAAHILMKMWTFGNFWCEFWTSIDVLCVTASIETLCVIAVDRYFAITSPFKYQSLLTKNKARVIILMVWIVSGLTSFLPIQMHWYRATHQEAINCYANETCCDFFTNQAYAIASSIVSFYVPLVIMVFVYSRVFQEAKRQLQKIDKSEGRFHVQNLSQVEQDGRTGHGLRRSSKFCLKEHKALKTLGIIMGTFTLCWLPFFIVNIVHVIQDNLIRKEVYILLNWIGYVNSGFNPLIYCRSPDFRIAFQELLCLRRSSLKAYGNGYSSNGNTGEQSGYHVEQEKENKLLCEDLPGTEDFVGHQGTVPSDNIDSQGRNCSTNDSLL
T cruzi repl: inhibitors of intracellular T. cruzi growth, primary screen, luminescence, NIH3T3 host cells; T. cruzi beta-gal in NIH3T3, 90 h; inhibition, % (concentration not given with the values); 1.4% of 300,000 active; AID 1885, 2009;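 active = mean inhibition across valid replicates above about 55%, limit read from the data; inconclusive = mean below that limit but half or more replicates reach it; inactive = mean below it, under half of replicates reach it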;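 also: signal also drops with host cell toxicity which is not excluded here; 0% = plate median of DMSO wells and 100% = zero luminescence signal; higher percent means less beta-gal luminescence so fewer parasites; stock transfer was 50 nL into about 50 µL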
Calb FLC: C. albicans growth inhibition with fluconazole, primary screen, CaCi-2 strain, Alamar Blue fluorescence | C. albicans CaCi-2 (fluconazole-resistant clinical isolate) + fluconazole, 48 h | growth inhibition, % (concentration not given with the values) | 0.57% of 300,000 active | AID 1979, 2009;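 active = most replicates above 75%; inconclusive = exactly half above 75%; inactive = most below 75%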;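 also: all wells also contain fluconazole at 8 µg/ml as a sub-toxic cotreatment; 0% = median of DMSO wells and 100% = median of geldanamycin control wells; wells of about 8 µL received 7.5 nL stock; the first replicate is given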
UCH37 DUB inh: inhibitors of human UCH37 deubiquitinase, primary screen, biochemical, Ub-AMC cleavage, fluorescence. Ubiquitin carboxyl-terminal hydrolase isozyme L5 (Homo sapiens), Q9Y5K5. purified proteasome/UCH37. inhibition, % (test concentration not listed). 0.33% of 330,000 active;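 active = mean of two replicates above 20%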;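 also: 0% = compound-free wells with enzyme and 100% = wells lacking proteasome; stock transfer was 100 nL into about 20 µL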
Target sequence (Q9Y5K5 whole entry, looked up): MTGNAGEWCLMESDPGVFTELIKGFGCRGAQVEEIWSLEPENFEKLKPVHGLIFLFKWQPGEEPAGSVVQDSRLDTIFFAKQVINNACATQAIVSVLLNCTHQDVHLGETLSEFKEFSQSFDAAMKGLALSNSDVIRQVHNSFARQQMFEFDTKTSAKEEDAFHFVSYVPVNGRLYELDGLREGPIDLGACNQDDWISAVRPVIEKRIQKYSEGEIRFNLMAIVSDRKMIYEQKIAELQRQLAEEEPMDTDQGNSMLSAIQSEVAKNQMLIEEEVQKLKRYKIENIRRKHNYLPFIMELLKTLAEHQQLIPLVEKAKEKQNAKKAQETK
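Material: Human UCH37 enzyme supplied as purified proteasome complex | Schedule: 30 min compound-proteasome preincubation then 25 min substrate reaction, room temperature | Detection: AMC fluorescence from Ub-AMC cleavage, excitation 355 nm, emission 460 nm | Benchmarks: Wells without proteasome as full block, compound-free enzyme plus substrate as uninhibited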
LANA-H2A inh: blockers of LANA interaction with H2A/H2B – biochemical, FP readout, HTS, primary screen; Protein LANA1 (Human herpesvirus 8 type P (isolate GK18)), Q9QR71; cell-free LANA-H2A/H2B peptide, fluorescence polarization; inhibition, % (test concentration not listed); 0.6% of 320,000 active; in the data active = inhibition mostly above about 10%, no sharp cut-off; inactive = mostly below about 6.7%;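 also: stock transfer was 7.5 nL into about 10 µL; 0% = median of vehicle wells and 100% = median of positive control wells; one replicate is shown; the record names a cut of 25% in any replicate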
RanGTP-Imp inh: inhibitors of RanGTP-importin-beta interaction, primary screen, biochemical, FRET, CFP-Ran, YFP-importin-beta, homogeneous; Ran GTPase (GTP-bound) - importin-beta complex; cell-free CFP-Ran/YFP-importin-beta FRET ratio; inhibition, % (test concentration not listed); 1.1% of 300,000 active;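 active = most replicates above 15%; inconclusive = exactly half above 15%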;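 also: 0% = DMSO wells and 100% = Ran loaded with GDP instead of GTP; wells of about 40 µL received 100 nL stock; the first replicate is given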
A1 inh: caspase 3/7 activation in MEF A1-2A-BIM cells, primary screen, A1 inhibitor project, cell-based, luminescence, HTS | Caspase-Glo 3/7 luminescence, 3 h; percent of clofoctol response, vehicle zero | caspase activation, % (test concentration not listed) | 0.066% of 330,000 active;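 active = over half of replicate activation scores above 10%, or exactly half above 10 with the replicate mean above 10; inconclusive = replicate mean below 10 yet half the replicates above 10; inactive = over half of replicates below 10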;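 also: wells of about 30 µL received 50 nL stock; many hits fall short of the cut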
* marks the source's active call; other numbers are inactive results; ? = inconclusive; . = not tested or not shown.

compound	A1 inh	T cruzi repl	LANA-H2A inh	RanGTP-Imp inh	UCH37 DUB inh	Beta apoptosis	Beta2AR agonist	Calb FLC
C[C@]12CC[C@@H]3c4ccc(O)cc4[C@@H](O)C[C@H]3[C@@H]1CC[C@@H]2O	0.4	-12	26*	-0.6	-3.9	-2	.	-4
O=C(Nc1ccccn1)c1cc2cc([N+](=O)[O-])ccc2s1	-6.0	-4	2.0	1.1	-0.5	-6	17	-6
CCOc1ccc2nc(NC(=O)C3CCN(S(=O)(=O)c4cnc[nH]4)CC3)sc2c1	-0.9	-3	6.6	1.2	5.5	-3	5	2
O=C1/C(=C\c2ccc3ccccc3c2)CCCc2ccccc21	-6.5	4	3.9	-1.0	4.3	10	0	-5
CCN(CC)S(=O)(=O)c1ccc(C)c(NC(=O)COC(=O)C=C(C)C)c1	-0.1	24	1.9	2.4	-0.1	-1	8	3
O=C(NCc1ccccc1)C1=C[C@H](c2coc3ccccc3c2=O)C[C@H](OCCCCO)O1	0.5	-11	-0.9	5.8	1.4	0	1	6
Cc1ccc(-n2c(=O)[nH]c3c(oc4ccccc43)c2=O)cc1	-0.2	-10	2.5	8.2	-56	9	0	9
COc1ccc(CCC(=O)NNC(=O)Nc2ccc(C(C)C)cc2)cc1	0.0	11	-0.8	?	3.2	-1	-3	20
Cc1ccc(-n2c(CSc3nc(C)cc(C)n3)n[nH]c2=S)cc1	-0.1	-14	4.7	1.7	4.3	.	1	0
CCCCCc1cc(=O)oc2c(C(CCN3CCCC(C)C3)c3cc(OC)c(OC)c(OC)c3)c(OC)cc(OC)c12 (stereo not given)	-0.5	50	-3.6	-1.7	-0.7	110*	14	-5
NS(=O)(=O)c1ccc(CCNC(=O)C2Cc3ccccc3CN2C(=O)c2ccco2)cc1 (stereo not given)	-0.2	-3	1.9	0.1	0.4	2	0	27
Cc1ccc(C(=O)Nc2ccc(Br)cc2)cc1S(=O)(=O)Nc1ccccn1	-2.1	17	4.0	-2.4	-5.1	2	0	5
CCOc1ccc(C(NC(=O)CC)c2c(O)ccc3ccccc23)cc1 (stereo not given)	1.3	-15	-2.1	1.3	-4.1	-5	4	-41
CCN(CC)S(=O)(=O)c1ccc(N2CCOCC2)c(NC(=O)c2sccc2C)c1	-0.6	.	-0.6	.	0.2	-1	7	.
O=C(Nc1ccc(N2CCCC2)cc1)c1cccc(Cl)c1	-5.4	10	-3.3	7.9	2.5	12	1	-6
CC1=C(C(=O)OCc2ccccc2)C(c2ccc(C(C)(C)C)cc2)NC(=O)N1CCCCCC(=O)O (stereo not given)	0.6	-22	6.2	4.1	2.0	9	-4	4
COc1ccc([N+](=O)[O-])cc1NC1CCCCC1	0.2	12	-4.4	-5.7	5.9	0	-4	-9
COCCC(=O)N1CCC(Oc2ccc(C(=O)NC3CCOC(C)(C)C3)cc2)CC1 (stereo not given)	-1.0	-20	1.2	1.7	0.6	-3	9	-4
Cc1ccccc1C(=O)c1cccn1CC(=O)NCC1CCCO1 (stereo not given)	0.3	16	0.5	-3.1	1.3	0	1	-10
OCC[C@H]1C[C@@H](O)[C@H](O)[C@]2(CCc3ccccc3O2)O1	0.4	.	3.3	.	2.6	2	0	.

Next section.
compound	A1 inh	T cruzi repl	LANA-H2A inh	RanGTP-Imp inh	UCH37 DUB inh	Beta apoptosis	Beta2AR agonist	Calb FLC
COc1ccc2cc(CO)c3cc(OC)c(OC)cc3c2c1	0.3	.	-2.5	.	3.2	-7	23	.
O=C(COC(=O)c1cccc(Br)c1)NCCc1ccccc1	0.3	4	-0.6	6.5	-0.3	2	6	18
COc1ccc2[nH]c(=O)c(C(c3nnnn3C3CCCCC3)N3CCN(C)CC3)cc2c1 (stereo not given)	-0.4	6	3.2	-1.3	-232	2	-5	3
Cn1c2ccccc2c(=O)c2cc(NCCCN3CCOCC3)ccc21	-1.3	.	1.8	.	-462	-5	-13	.
O=C(OCC(=O)N(c1ccccc1)C1CCCCC1)c1ccc(CO)cc1	-0.5	.	0.4	.	-2.2	2	-1	.
O=C(N/N=C/c1ccc(C(=O)O)cc1)C(=O)N1CCCCCC1	0.2	1	4.3	4.5	.	-2	8	-3
CNS(=O)(=O)c1ccc(C)cc1	-1.3	-4	1.0	-3.9	4.2	-8	2	-3
C=CCNc1nc(-c2c(C)nc3ncccn23)cs1	0.5	-3	4.0	0.8	7.1	-9	1	-1
O=C(/C=C/c1ccc2c(c1)OCO2)Nc1cccnc1	-7.4	2	-1.8	-0.9	-40	-3	6	-15
N#CC1=C(N)NC(SCC(=O)c2ccccc2)=C(C#N)C12CCCC2	0.3	-8	0.0	7.4	2.9	-7	-8	24
CC(=O)c1cccc(NC(=O)Cn2cnc(S(=O)(=O)N3CCc4ccccc43)c2)c1	2.5	5	-2.7	1.9	-0.8	-7	-8	-14
O=C(CSCC(=O)NCc1ccco1)NCc1ccco1	0.9	-9	0.3	0.9	0.8	-3	6	-4
FC(F)(F)c1nnc(-c2ccccc2)nc1Sc1ccc(Cl)cc1	1.0	39	-5.2	-0.4	4.6	63	36	12
O=C(c1cn(Cc2ccccc2)nc1-c1cccnc1)N1CCN(Cc2ccccc2)CC1	0.2	.	-2.1	.	-1.9	-1	-4	.
COc1cccc(-n2cnc(=O)c3cccnc32)c1	0.2	-10	1.0	3.4	2.9	-3	0	-11
CCOC(=O)N1CCN(c2ccc(C(C)=O)cc2F)CC1C (stereo not given)	-0.3	-18	-7.5	?	2.0	1	-7	-18
CN(C(=O)COC(=O)c1ccccc1OCc1ccc(Cl)cc1)c1c(N)n(Cc2ccccc2)c(=O)[nH]c1=O	0.3	4	0.0	-4.4	0.9	9	1	0
COc1ccc(CNC(=O)C/C(C)=N/NC(=O)c2ccccc2OC)cc1	0.2	1	4.1	4.0	.	-2	-11	7
CCn1cnc2c(cnn2-c2ccccc2)c1=O	1.8	-11	2.7	?	0.4	-17	-1	2
COc1ccc(NC(=O)c2cccc(S(=O)(=O)N3CCN(c4ccccc4)CC3)c2)c(OC)c1	-0.4	.	1.7	.	1.6	2	-2	.

(continued)
compound	A1 inh	T cruzi repl	LANA-H2A inh	RanGTP-Imp inh	UCH37 DUB inh	Beta apoptosis	Beta2AR agonist	Calb FLC
COCCNC(=O)Cc1ccc(F)cc1	0.3	-9	6.2	-0.7	2.4	-4	-11	-12
NS(=O)(=O)c1cc(C(=O)N2CCNC(=O)C2)ccc1Cl	0.7	12	-1.2	-4.1	1.5	-6	0	-9
CCOCC(=O)Nc1ccc(Br)c(C)c1	0.5	-22	-0.3	2.4	-0.4	1	-2	-3
Cc1noc(C)c1COC(=O)c1ccccc1NC(=O)Cc1ccccc1	0.0	23	1.3	0.2	-0.1	4	4	14
Cc1ccc(OCc2cc(C(=O)NC(C)Cc3cccc(C)n3)no2)cn1 (stereo not given)	0.7	-19	-0.9	0.6	1.4	1	4	-1
Cc1cccc(C(=O)NNC(=O)CCn2nnc3ccccc32)c1	0.2	-26	0.9	7.9	.	-4	-3	-13
COc1ccc(-c2nc(CS(=O)CC(=O)NC3CCCCC3)c(C)o2)cc1 (stereo not given)	-0.5	14	0.2	0.2	-1.6	-2	-3	10
O=C(COC(=O)c1ccc(F)cc1)NCC1CCCCC1	-0.2	.	0.1	.	-0.6	-1	-11	.
O=C(NCCN1C(=O)S/C(=C\c2cccnc2)C1=O)C1CC(=O)N(Cc2ccco2)C1 (stereo not given)	0.4	-6	6.0	-1.5	5.4	-5	-5	7
COCCN(C(=O)CNC(=O)c1cccs1)C(C(=O)NC1CCCC1)c1cccs1 (stereo not given)	-0.1	-16	-5.6	-0.9	2.5	2	-1	1
CCOC(=O)N1CCC(NC(=O)CCc2c(C)nc3nc(C)nn3c2C)CC1	0.2	-4	-1.8	0.4	0.8	-3	17	-6
COc1ccc(CCNC(=O)Cn2nnc3ccccc3c2=O)cc1	0.0	-14	-4.5	-1.0	1.5	-3	1	9
COC(=O)c1[nH]c2cc(C)ccc2c1NC(=O)CN1CCOCC1	0.2	-1	4.2	0.3	-5.7	-3	-9	-1
Cc1cc(C)n2c(SCc3cccs3)nnc2n1	0.1	0	-0.3	3.1	3.9	-5	-17	24
Nc1nc(SCc2ccc(Cl)cc2Cl)ns1	0.3	5	-0.7	2.2	4.8	-1	-18	-38
COc1ccc(Br)cc1/C=c1\sc2nc(-c3ccco3)nn2c1=O	-2.1	-4	-0.5	-6.6	.	-3	20	-3
CC(C)=CCc1c2c(c(O)c3c(=O)c4c(oc13)-c1cc(O)c(O)cc1OC4C=C(C)C)C=CC(C)(C)O2 (stereo not given)	-0.3	-9	0.6	-1.0	4.3	71	.	89*
Clc1ccccc1-c1nnn(Cc2ccc(-c3nn[nH]n3)cc2)n1	-0.3	-3	-5.2	1.1	-4.8	-8	0	-8
COc1cccc2c1C(=O)c1ccc3ccccc3c1C2=O	-8.7	9	-2.0	0.1	2.1	-1	9	-2
CCOC(=O)c1cc(=O)c2ccc(OCC(=O)Nc3ccccc3)cc2o1	0.2	-23	-3.4	-0.2	5.7	1	-1	-2
COCCSc1ccccc1C(=O)Nc1ccccc1C#N	-0.1	-10	3.1	1.2	-0.9	4	0	0
NCCCNc1ccc([N+](=O)[O-])cc1C(F)(F)F	-0.6	6	1.1	-1.7	9.9	0	12	1
